Source: PubChem BioAssay (Broad Institute)
Yeast UUG start: modulators of start codon recognition fidelity in yeast; S. cerevisiae UUG-firefly luciferase reporter, luminescence/redox ratio; AID 602363; actives 0.13% (n = 350,000); activity score, % at 18.7 µM;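 active = replicate mean at a twofold rise or more, about +100% in these data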;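 also: firefly luciferase made from a UUG start codon reports start codon fidelity; reporter light over untreated wells divided by growth signal over untreated wells; some hits fall short of that in this replicate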
Active calls of the source: *. This is a subset; rates above refer to the full screens.

SMILES	Yeast UUG start
COc1ccccc1-c1ccc([C@@H]2[C@H]3CN(S(=O)(=O)c4cn(C)cn4)CCCCN3[C@H]2CO)cc1	10
O=C(C[C@@H]1C[C@H]2c3cc(NC(=O)c4cccnc4)ccc3O[C@H]2[C@H](CO)O1)NCc1ccncc1	-10
CNC[C@@H]1Oc2ccc(NS(=O)(=O)c3ccc(Cl)cc3)cc2C(=O)N([C@H](C)CO)C[C@H]1C	14
Cc1noc(C)c1NC(=O)N(C)C[C@@H]1Oc2ccc(NS(C)(=O)=O)cc2C(=O)N([C@@H](C)CO)C[C@H]1C	-20
CC(C)NC(=O)Nc1ccc2c(c1)CC(=O)N([C@@H](C)CO)C[C@H](C)[C@@H](CN(C)S(=O)(=O)c1ccc(Cl)cc1)O2	-6
Cc1cc(C(=O)Nc2cccc3c2O[C@@H](CN(C)C(=O)NC(C)C)[C@H](C)CN([C@H](C)CO)C3=O)n(C)n1	13
CC(C)NC(=O)N1CCCCN2[C@H](CO)[C@H](c3ccc(C4=CCCC4)cc3)[C@@H]2C1	-2
CO[C@H]1CN(C)C(=O)c2cc(NC(=O)C3CCCC3)ccc2OC[C@H](C)N(CC2CC2)C[C@H]1C	-3
CO[C@@H]1CN(C)C(=O)c2ccc(NC(=O)c3ccc4c(c3)OCO4)cc2OC[C@@H](C)N(CC2CC2)C[C@H]1C	-7
C[C@@H](NC(=O)C[C@@H]1C[C@@H]2c3cc(NC(=O)C4CCC4)ccc3O[C@@H]2[C@H](CO)O1)c1ccccc1	-14
CC(C)[C@@H](C)NC(=O)N(C)C[C@H]1OCc2ccccc2-c2c(n(C)c3ccccc23)C(=O)N([C@H](C)CO)C[C@@H]1C	2
OC[C@H]1[C@@H](c2ccc(C#CC3CC3)cc2)[C@@H]2CN(CCC(F)(F)F)CCCCN12	7
Cc1noc(C)c1S(=O)(=O)Nc1ccc2c(c1)C(=O)N([C@H](C)CO)C[C@H](C)[C@@H](CN(C)C)O2	-15
O=C(Nc1ccc(F)cc1)N1C[C@@H]2[C@H](c3ccccc31)[C@@H](CO)N2C(=O)Cc1cccnc1	-9
COc1ccccc1NC(=O)N1CCCCN2[C@@H](CO)[C@@H](c3ccc(-c4cccc(C#N)c4)cc3)[C@@H]2C1	8
COc1ccc(CN(C)C[C@@H]2Oc3ccc(N(C)C)cc3CC(=O)N([C@@H](C)CO)C[C@H]2C)cc1	-12
COc1ccccc1C#Cc1ccc([C@@H]2[C@H]3CN(C(=O)C4CCCC4)CCCCN3[C@H]2CO)cc1	2
O=C(Nc1ccccc1F)N1C[C@H]2[C@@H](c3ccccc31)[C@@H](CO)N2C(=O)C1CCCC1	18
CNC[C@H]1Oc2ccc(NC(=O)Nc3ccccc3)cc2CC(=O)N([C@@H](C)CO)C[C@H]1C	-3
OC[C@H]1[C@H](c2ccc(C#CC3CC3)cc2)[C@H]2CN(CCC(F)(F)F)CCCCN21	-3
C[C@@H]1CN([C@H](C)CO)C(=O)c2cccc(NS(C)(=O)=O)c2O[C@@H]1CN(C)Cc1ccc(Oc2ccccc2)cc1	3
O=C(c1ccncc1)N1C[C@H]2[C@@H](c3ccccc31)[C@@H](CO)N2Cc1ccc(F)cc1	-1
COCC(=O)Nc1ccc2c(c1)OC[C@@H](C)N(C(=O)c1cnccn1)C[C@@H](C)[C@H](OC)CN(C)C2=O	0
C[C@@H]1CN([C@H](C)CO)C(=O)c2c(c3ccccc3n2C)-c2ccccc2CO[C@H]1CN(C)C(=O)c1ccc(F)cc1	13
C[C@H](CO)N1C[C@H](C)[C@H](CN(C)C)Oc2c(NC(=O)Nc3ccc(C(F)(F)F)cc3)cccc2C1=O	-13
COc1ccc(CN(C)C[C@@H]2Oc3c(NS(=O)(=O)c4cn(C)cn4)cccc3C(=O)N([C@@H](C)CO)C[C@H]2C)cc1	-10
CO[C@@H]1CN(C)C(=O)c2ccc(NC(=O)C3CC3)cc2OC[C@@H](C)N(C)C[C@H]1C	-5
C[C@H]1CN([C@@H](C)CO)C(=O)c2cc(N(C)C)ccc2O[C@@H]1CN(C)S(=O)(=O)c1ccc(F)cc1	3
CN1CCCCN2[C@@H](CO)[C@H](c3ccc(C#CC4(O)CCCC4)cc3)[C@@H]2C1	6
Cc1ccc(S(=O)(=O)Nc2ccc3c(c2)CC(=O)N([C@H](C)CO)C[C@@H](C)[C@@H](CN(C)C(=O)Nc2ccc(F)cc2)O3)cc1	11

Exported with the structure last: two of the compounds above.
Yeast UUG start	SMILES
10	COc1ccccc1-c1ccc([C@@H]2[C@H]3CN(S(=O)(=O)c4cn(C)cn4)CCCCN3[C@H]2CO)cc1
-10	O=C(C[C@@H]1C[C@H]2c3cc(NC(=O)c4cccnc4)ccc3O[C@H]2[C@H](CO)O1)NCc1ccncc1

Next part:
SMILES	Yeast UUG start
O=C(C[C@@H]1CC[C@@H]2[C@H](COC[C@@H](O)CN2Cc2cccc(C(F)(F)F)c2)O1)NCc1ccc(F)cc1	3
OC[C@H]1Nc2ccc(-c3ccc(F)cc3)cc2[C@H]2[C@@H]1CCN2Cc1ccc(F)cc1	-15
CNC[C@H]1Oc2ccc(NS(=O)(=O)c3ccc(C)cc3)cc2C(=O)N([C@H](C)CO)C[C@@H]1C	-10
COCC(=O)N1CCCCN2[C@@H](CO)[C@@H](c3ccc(C#Cc4ccccc4)cc3)[C@@H]2C1	1
CN1c2ccc(-c3ccccc3F)cc2[C@H]2[C@H](CCN2S(=O)(=O)c2ccccc2)[C@H]1CO	-5
C/C=C/c1ccc([C@@H]2[C@@H](CO)N(C(C)=O)[C@H]2CN(CC)C(=O)CC)cc1	0
COc1ccccc1-c1ccc([C@H]2[C@H](CO)N3CCCCN(C(=O)NC4CCCC4)C[C@@H]23)cc1	8
C[C@@H](NC(=O)C[C@@H]1CC[C@@H]2[C@H](COc3ccc(NC(=O)C4CCOCC4)cc3C(=O)N2C)O1)c1ccccc1	4
O=C(c1cccnc1)N1C[C@H]2[C@@H](c3ccccc31)[C@H](CO)N2CC1CCCCC1	9
O=C(Nc1ccc(F)cc1)N1C[C@@H]2[C@H](c3ccccc31)[C@H](CO)N2C(=O)c1ccccc1F	-5
COc1cccc(C(=O)Nc2ccc3c(c2)C(=O)N(C)C[C@H](OC)[C@H](C)CN(CC2CC2)[C@@H](C)CO3)c1	-8
O=C(CN1CCOCC1)N1CC[C@H]2[C@H](CO)Nc3ccc(Br)cc3[C@H]21	2
O=C(C1CCOCC1)N1C[C@@H]2[C@H](c3ccccc31)[C@@H](CO)N2C(=O)Nc1ccccc1F	0
CO[C@@H]1CN(C)C(=O)c2ccc(NC(=O)C3CCC3)cc2OC[C@@H](C)N(C)C[C@@H]1C	-11
C/C=C/c1ccc2c(c1)[C@@H]1[C@@H](CCN1C(=O)c1cnccn1)[C@H](CO)N2	2
COCC(=O)N1C[C@H](C)[C@H](OC)CN(C)C(=O)c2cc(NC(=O)Nc3ccccc3)ccc2OC[C@@H]1C	47
CCCNC(=O)C[C@H]1C[C@@H]2c3cc(NC(=O)c4ccc5c(c4)OCO5)ccc3O[C@@H]2[C@H](CO)O1	2
COc1ccc(S(=O)(=O)Nc2ccc3c(c2)C(=O)N([C@@H](C)CO)C[C@@H](C)[C@H](CN(C)Cc2ccc4c(c2)OCO4)O3)cc1	5
CO[C@@H]1CN(C)C(=O)c2cc(NS(=O)(=O)c3cn(C)cn3)ccc2OC[C@H](C)N(Cc2cccc(F)c2)C[C@H]1C	-6
CO[C@H]1CN(C)C(=O)c2cc(NS(=O)(=O)c3cn(C)cn3)ccc2OC[C@@H](C)N(Cc2cccc(F)c2)C[C@@H]1C	1
Cc1ccccc1S(=O)(=O)N1C[C@H](O)COC[C@@H]2O[C@H](CC(=O)N3CCCCC3)CC[C@H]21	3
CO[C@H]1CN(C)C(=O)c2ccc(NC(=O)C3CC3)cc2OC[C@@H](C)N(C(=O)C2CCOCC2)C[C@H]1C	33
COc1ccc(S(=O)(=O)Nc2cccc3c2O[C@@H](CN(C)C(=O)NC2CCCCC2)[C@H](C)CN([C@H](C)CO)C3=O)cc1	16
COCC(=O)N1C[C@H]2[C@@H](c3ccccc31)[C@H](CO)N2Cc1ccccc1Cl	-4
OC[C@H]1[C@@H](c2ccc(C#Cc3ccccc3F)cc2)[C@H]2CN(Cc3cncnc3)CCCCN21	6
CCS(=O)(=O)Nc1ccc2c(c1)C(=O)N(C)C[C@@H](OC)[C@@H](C)CN(C(=O)CN(C)C)[C@@H](C)CO2	5
C/C=C/c1ccc([C@H]2[C@@H](CNC(=O)c3ccccn3)N(C(C)=O)[C@H]2CO)cc1	0
C[C@@H]1CN([C@@H](C)CO)C(=O)c2cccc(N(C)C)c2O[C@@H]1CN(C)S(=O)(=O)c1ccccc1	-17
COc1ccc(S(=O)(=O)N(C)C[C@H]2Oc3ccc(NC(=O)Nc4ccc(F)cc4)cc3C(=O)N([C@H](C)CO)C[C@H]2C)cc1	-2
COCC(=O)N1C[C@@H]2[C@H](c3ccccc31)[C@H](CO)N2Cc1ccccc1	-9
O=C(Nc1ccccc1)N1C[C@@H]2[C@H](c3ccccc31)[C@H](CO)N2C(=O)c1cccnc1	-2
C[C@@H]1CN([C@H](C)CO)C(=O)c2cc(NC(=O)Nc3ccc4c(c3)OCO4)ccc2O[C@@H]1CN(C)Cc1ccc(Cl)c(Cl)c1	-5
O=C(c1cnccn1)N1C[C@H]2[C@@H](c3ccccc31)[C@@H](CO)N2Cc1ccc2c(c1)OCO2	4
C[C@H]1CN([C@@H](C)CO)C(=O)c2cccc(NC(=O)C3CCCCC3)c2O[C@@H]1CN(C)C(=O)Nc1ccc(C(F)(F)F)cc1	8
C[C@@H]1CN([C@@H](C)CO)C(=O)c2cc(NC(=O)Nc3cccc4ccccc34)ccc2O[C@@H]1CN(C)S(=O)(=O)c1ccc(Cl)cc1	1
COc1ccc(S(=O)(=O)Nc2cccc3c2O[C@H](CN(C)C(=O)Nc2c(C)noc2C)[C@@H](C)CN([C@@H](C)CO)C3=O)cc1	0
Cc1noc(C)c1NC(=O)N(C)C[C@@H]1Oc2c(NC(=O)Nc3ccc(C(F)(F)F)cc3)cccc2C(=O)N([C@@H](C)CO)C[C@H]1C	17
Cc1ccc(-c2cnc3c(c2)C(=O)N([C@@H](C)CO)C[C@@H](C)[C@H](CN(C)CC2CCCC2)O3)cc1	11
CCCNC(=O)N1[C@@H]2CN(C)c3ccccc3[C@@H]2[C@@H]1CO	-3
C[C@@H]1CN([C@H](C)CO)C(=O)c2cc(NC(=O)CCN3CCOCC3)ccc2O[C@@H]1CN(C)C(=O)Nc1ccc2c(c1)OCO2	-10
CNC[C@H]1Oc2ccc(NS(=O)(=O)c3cccs3)cc2C(=O)N([C@@H](C)CO)C[C@H]1C	-3
Cc1noc(C)c1S(=O)(=O)N(C)C[C@@H]1Oc2ccc(NC(=O)Cn3cnnn3)cc2C(=O)N([C@@H](C)CO)C[C@@H]1C	-10
CO[C@H]1CN(C)C(=O)c2ccc(NS(=O)(=O)c3ccccc3)cc2OC[C@@H](C)N(C)C[C@@H]1C	-9
COc1ccc(NC(=O)N2CCCCN3[C@@H](CO)[C@@H](c4ccc(C#Cc5ccccc5)cc4)[C@@H]3C2)cc1	-8
O=C(Nc1ccccc1F)N1CCCCN2[C@H](CO)[C@@H](c3ccc(C#Cc4cccnc4)cc3)[C@H]2C1	1
C[C@@H]1CN([C@@H](C)CO)C(=O)c2cccc(NC(=O)Nc3ccc4c(c3)OCO4)c2O[C@H]1CN(C)Cc1ccc(Oc2ccccc2)cc1	-3
CO[C@@H]1CN(C)C(=O)c2ccc(NC(C)=O)cc2OC[C@@H](C)N(C(=O)CN2CCOCC2)C[C@@H]1C	-1
O=C(Nc1ccccc1)N1CCCCN2[C@H](CO)[C@H](c3ccc(C4=CCCCC4)cc3)[C@@H]2C1	17
CO[C@H]1CN(C)C(=O)c2ccc(NS(=O)(=O)c3ccc(Cl)cc3)cc2OC[C@H](C)NC[C@H]1C	-4
C/C=C/c1ccc([C@@H]2[C@@H](CO)N[C@@H]2CN(CC(C)C)C(=O)c2ccccn2)cc1	-6
COc1cccc(S(=O)(=O)N2C[C@H](O)COC[C@@H]3O[C@@H](CC(=O)N4CCN(C)CC4)CC[C@H]32)c1	-6
O=C(Nc1ccccc1)N1C[C@@H]2[C@H](c3ccccc31)[C@H](CO)N2Cc1ccccc1Cl	-4
CC=Cc1ccc2n(c1=O)C[C@H]1[C@H](CO)[C@@H](C(=O)NCCC)[C@@H]2N1C(=O)C1CC1 (mixture of isomers)	20
C/C=C/c1ccc2c(c1)[C@@H]1[C@@H](CCN1C(=O)Cc1cccnc1)[C@@H](CO)N2C	-11
C[C@H](CO)N1C[C@H](C)[C@@H](CN(C)Cc2ccc(C(=O)O)cc2)Oc2ccc(NC(=O)C3CCCCC3)cc2C1=O	-15
COc1ccccc1-c1ccc([C@H]2[C@@H](CO)N3CCCCN(C(=O)c4cccnc4)C[C@@H]23)cc1	8
C[C@H](CO)N1C[C@H](C)[C@@H](CN(C)S(=O)(=O)c2ccc(Cl)cc2)Oc2c(cccc2N(C)C)C1=O	11

Grouped by structure, the entries above containing a CF3 group.
SMILES	Yeast UUG start
OC[C@H]1[C@@H](c2ccc(C#CC3CC3)cc2)[C@@H]2CN(CCC(F)(F)F)CCCCN12	7
OC[C@H]1[C@H](c2ccc(C#CC3CC3)cc2)[C@H]2CN(CCC(F)(F)F)CCCCN21	-3
C[C@H](CO)N1C[C@H](C)[C@H](CN(C)C)Oc2c(NC(=O)Nc3ccc(C(F)(F)F)cc3)cccc2C1=O	-13
O=C(C[C@@H]1CC[C@@H]2[C@H](COC[C@@H](O)CN2Cc2cccc(C(F)(F)F)c2)O1)NCc1ccc(F)cc1	3
C[C@H]1CN([C@@H](C)CO)C(=O)c2cccc(NC(=O)C3CCCCC3)c2O[C@@H]1CN(C)C(=O)Nc1ccc(C(F)(F)F)cc1	8
Cc1noc(C)c1NC(=O)N(C)C[C@@H]1Oc2c(NC(=O)Nc3ccc(C(F)(F)F)cc3)cccc2C(=O)N([C@@H](C)CO)C[C@H]1C	17
